D2 agonist: agonists of human D2 dopamine receptor (beta-arrestin); DiscoveRx PathHunter D2 beta-arrestin, luminescence, 90 min; 100% = 57 uM dopamine signal; AID 624465; 360,000 compounds, 0.084% hits; P14416; activation, % (test concentration not listed); in the data active = activation above about 40%; inconclusive = about 15% to 40%; inactive = below about 15%; also: compound concentration not given in the record; the text of the record calls up to 30% inactive
Target sequence (P14416 whole entry, looked up): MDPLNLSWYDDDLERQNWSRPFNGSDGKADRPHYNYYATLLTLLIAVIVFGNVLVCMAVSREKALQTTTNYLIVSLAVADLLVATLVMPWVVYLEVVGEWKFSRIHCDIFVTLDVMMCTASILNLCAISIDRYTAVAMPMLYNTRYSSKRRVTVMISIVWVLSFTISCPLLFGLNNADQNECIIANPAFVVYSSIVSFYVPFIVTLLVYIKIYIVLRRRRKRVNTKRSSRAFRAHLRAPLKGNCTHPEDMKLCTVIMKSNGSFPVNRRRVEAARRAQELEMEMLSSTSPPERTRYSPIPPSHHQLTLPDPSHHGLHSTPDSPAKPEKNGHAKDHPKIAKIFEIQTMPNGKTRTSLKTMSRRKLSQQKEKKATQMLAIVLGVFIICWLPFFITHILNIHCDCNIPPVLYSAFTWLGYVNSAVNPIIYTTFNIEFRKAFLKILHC
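DiscoveRx PathHunter D2 beta-arrestin cells (2,100/well) attached overnight, then compound-stimulated 90 min at 37 C in HBSS/10 mM HEPES/0.1% Tween-20 buffer; beta-galactosidase complementation read by luminescence after 1 h at ambient temperature. Dopamine 57 uM final (EC100) as control.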
TRPML1 inh: inhibitors of human TRPML1 channel. TRPML1-inducible cells, Ca2+ dye fluorescence, FDSS; active compounds read low; inhibition of EC80 agonist-evoked calcium signal. activity change, negative = inhibition, % (no concentration beside the values). 390,000 compounds, 0.02% hits. AID 624415; in the data active means activity change below about -50%; inconclusive means about -30% to -50%; inactive means above about -30%;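 also: stimulus is agonist 54-4 at its EC80 concentration; % is scaled to controls: 0 for no effect and ±100 for the full control effect; compound concentration not given in the record; the text of the record puts the active cut at -80%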
Target sequence (Q9GZU1 whole entry, looked up): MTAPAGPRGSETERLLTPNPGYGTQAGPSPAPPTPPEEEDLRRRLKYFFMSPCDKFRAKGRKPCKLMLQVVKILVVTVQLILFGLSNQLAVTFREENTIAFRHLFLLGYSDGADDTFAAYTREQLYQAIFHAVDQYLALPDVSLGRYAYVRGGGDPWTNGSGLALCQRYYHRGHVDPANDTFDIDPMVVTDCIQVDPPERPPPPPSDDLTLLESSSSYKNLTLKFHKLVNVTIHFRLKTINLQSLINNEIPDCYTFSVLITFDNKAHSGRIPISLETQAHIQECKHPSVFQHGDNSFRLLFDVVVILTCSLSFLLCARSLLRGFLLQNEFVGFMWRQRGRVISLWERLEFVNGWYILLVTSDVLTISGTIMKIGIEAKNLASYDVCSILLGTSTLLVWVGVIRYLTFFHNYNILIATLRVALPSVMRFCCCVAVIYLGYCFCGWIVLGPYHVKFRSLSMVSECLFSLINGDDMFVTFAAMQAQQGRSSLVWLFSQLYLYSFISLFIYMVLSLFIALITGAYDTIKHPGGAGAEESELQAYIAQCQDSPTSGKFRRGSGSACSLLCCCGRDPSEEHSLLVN
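Tet-induced TRPML1-DL cells loaded with Ca8 no-wash calcium dye were read kinetically on FDSS. Compound addition was followed by EC80 agonist 54-4 (4 uM final); inhibition was read over 110 s.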
Six1-Eya2 inh: blocks human Six1 binding to Eya2; AlphaScreen GST-Six1/His-Eya2 binding, biochemical; active compounds read low; control for the full effect not named in the record; activity change, % (test concentration not listed); 360,000 compounds, 0.56% hits; AID 651725; in the data active = activity change below about -65%; inconclusive = about -30% to -65%; inactive = above about -30%; also: % is scaled to controls: 0 for no effect and ±100 for the full control effect
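GST-Six1 + His-Eya2 (5X stock: 250/500 nM); Tris pH 8.0, 300 mM NaCl, 0.05% BSA, 0.02% Tween 20; GSH donor/Ni acceptor beads; 1 h 37 °C dark; AlphaScreen readout.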
PINK1 expr mod: modulators of PINK1 expression | PINK1 immunofluorescence, high-content cytometry, 24 h | Potency, µM (titrated, usually from 76.6 µM), for inactives: at the top dose activation (PINK1 increase), most hits filed as activators | 410,000 compounds, 0.2% hits | AID 624263; active = well fitted activation curve with a large enough effect; inconclusive = small, poorly fitted or top-dose-only effect; inactive = flat fitted curve, though single readings scatter; cell line not stated here;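 also: potency is read from the fitted curve at half-maximal effect; % of control where 0% means no effect; nearly all actives have a fitted effect of over 65% in size; a mitochondrial uncoupler was the plate control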
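Decision-based qHTS: stable cells, 24 h exposure to five compound concentrations, CCCP as control. Fixed cells stained for PINK1 plus nuclear, mitochondrial and cell markers, cytometer read.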
D2 PAM: potentiates the human D2 dopamine receptor allosterically; DiscoveRx D2 beta-arrestin cells, luminescence, 90 min; 100% = 57 uM dopamine signal; 360,000 compounds, 0.23% hits; P14416; potentiation, % (no concentration beside the values); active = potentiation of 50% or more; inconclusive = 30% to 50%; inactive = 30% or less;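 also: compound concentration not given in the record; tested on top of an EC20 dose of dopamine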
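PathHunter D2 cells, attached overnight at 37 deg C, received compound in DMSO plus dopamine at EC20 (50 nM final) for 90 min at 37 deg C. Beta-arrestin recruitment was read as luminescence after 1 h with detection reagent at ambient temperature.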
TRPML1 agonist: human mucolipin-1 channel agonism; TRPML1-expressing cells, Ca2+ dye fluorescence, FDSS; host cell line not named in the record; reference of the full effect not given here; activation, % (no concentration beside the values); Q9GZU1; 410,000 compounds, 0.12% hits; in the data active = activation above about 50%; inconclusive = about 30% to 50%; inactive = below about 30%; also: 0% is about no effect; the text of the record puts the active cut at 80%
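In this qHTS format, compounds were pin-transferred onto Ca8-dye-loaded TRPML1-DL cells induced with Tet overnight, and intracellular Ca2+ fluorescence was recorded kinetically for 110 s after a 10 s baseline. A subsequent 4uM final 54-4 (EC80) addition followed by a second 110 s read served as the antagonist phase.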
The depositor's hits bear a star; ? = inconclusive; / = no result given; [ ] = another dose, or the depositor's remark. Not all compounds are listed. The share of hits here may be higher or lower than overall.

item	compound	D2 PAM	TRPML1 agonist	D2 agonist	PINK1 expr mod	TRPML1 inh	Six1-Eya2 inh
1	COc1ccccc1N1CCN(Cc2ccccc2F)CC1	5.0	-0.7	-0.8	1.0%	1.9	-2.9
2	C[C@H]1CN([C@@H](C)CO)C(=O)CCCn2nncc2CO[C@@H]1CN(C)C(=O)Oc1ccccc1	1.7	-0.4	-10.0	-0.4%	15.9	2.5
3	CC(C)(C)NC(=O)C1CC2CCCCC2CN1 (stereo not given)	0.6	0.4	-4.8	0.9%	0.2	16.7
4	O=c1[nH]c(O)c(/C=C2\C=Nc3ccc(OCc4ccccc4)cc32)c(=O)[nH]1	-2.1	0.7	-0.9	31.6µM*	-18.2	-3.2
5	CN1CCc2c(C#N)c(Cl)nc(Cl)c2C1	-9.9	0.4	1.9	3.9%	6.8	4.3
6	CC(C)[C@]12CC(=O)[C@H](C)[C@H]1C2	-5.8	-0.8	-2.9	0.1%	10.7	6.4
7	Cc1cccc(-n2c(/C=C/c3cccc4ccccc34)nc3ccccc3c2=O)c1	/	1.5	/	0.9%	-22.2	/
8	CCC(=NCCO)c1c(O)n(-c2ccccc2)c(=O)[nH]c1=O	-17.3	-0.3	-3.9	1.7%	-11.8	17.8
9	CC(CC(C#N)(c1ccccc1)c1ccccc1)N1CCCCC1 (stereo not given)	-11.3	1.6	-2.1	7.1%	-10.1	2.4
10	C=CCN(CC=C)Cc1c[nH]c2ccccc12	-17.8	0.1	-0.9	-1.6%[38.3 µM]	4.0	-1.6
11	Cc1ccc(Sc2ccc(C=C3C(=O)N(C)C(=O)N(C)C3=O)o2)cc1	-0.3	-1.3	-1.8	2.2%	-10.3	1.9
12	COC(=O)C1=C(c2cc3ccccc3s2)C[C@@H]2CC[C@H]1N2C(=O)N1CCCCC1	-21.1	-0.3	-1.9	2.0%	-2.8	-7.6
13	CCOc1cc2c(cc1OCC)-n1cccc1C(c1cc(C)c(OC)cc1C)NC2 (stereo not given)	-16.5	2.2	-6.2	?	-19.7	?
14	c1ccc2c(c1)CC1CNCc3cccc(c31)S2 (stereo not given)	-21.6	1.0	-0.1	-0.3%	-14.5	7.0
15	O=C(Nc1ccc(Cl)cc1C(=O)c1ccccc1)c1ccccc1Br	/	1.7	/	0.9%	12.3	/
16	C[C@]12CCC3C(CCC4=C/C(=N/OCC(=O)NC(CCC(=O)O)C(=O)O)CC[C@@]43C)C1CCC2O (stereo not given in full)	-4.5	0.1	4.0	0.9%	1.0	-1.4
17	Cc1c(C(=O)N2CCC3(CC2)OCCO3)sc2ncnc(N(C)c3ccccc3)c12	-13.5	0.0	-3.3	-2.4%	-13.4	6.1
18	CN1CC(C(=O)c2ccc([N+](=O)[O-])cc2)C(c2ccc(Cl)cc2)C1 (stereo not given)	-11.8	0.0	5.1	0.9%	11.7	?
19	CC(C)(C)C(=O)c1cn(CC(=O)NCc2ccco2)c2ccccc12	-6.4	1.8	-2.5	3.8%	-3.7	1.1
20	COc1cccc(-c2nn(CCC#N)cc2C(=O)Nc2ccccc2Cl)c1	?	/	3.9	6.6%	/	1.0
21	CC(C)CNC(=O)c1c(N)n(Cc2ccco2)c2nc3ccccc3nc12	-14.8	1.6	-5.0	2.0%	7.6	8.5
22	Cc1ccc(-n2c(O)c(C=Nc3ccc(S(N)(=O)=O)cc3)c(=O)[nH]c2=O)cc1	-19.2	-0.1	0.2	3.1%	8.5	10.2
23	CCN1CCN(c2ccc(N)c(C)c2)CC1	/	0.2	-1.9	-0.4%	9.2	-22.0
24	CN1C(=O)C(=Cc2ccc(N3CCOCC3)o2)C(=O)N(C)C1=O	-22.4	8.9	-8.7	-0.5%	5.0	-5.0
25	Nc1c2c(nc3sc4c(c13)CCCCC4)CCCC2	-47.1	1.0	-4.9	?	-6.0	-19.4

Part of the list above, with two lines to a compound:
Below each SMILES: D2 PAM	TRPML1 agonist	D2 agonist	PINK1 expr mod	TRPML1 inh	Six1-Eya2 inh
8: CCC(=NCCO)c1c(O)n(-c2ccccc2)c(=O)[nH]c1=O
→ -17.3	-0.3	-3.9	1.7%	-11.8	17.8
15: O=C(Nc1ccc(Cl)cc1C(=O)c1ccccc1)c1ccccc1Br
→ /	1.7	/	0.9%	12.3	/

The list goes on.
item	compound	D2 PAM	TRPML1 agonist	D2 agonist	PINK1 expr mod	TRPML1 inh	Six1-Eya2 inh
26	c1cnc(N2CCNCC2)nc1	-9.4	-0.3	1.2	-1.1%	1.3	-4.3
27	CC(=O)Nc1ccccc1C(=O)OCc1ccccc1F	-9.5	1.4	-1.8	4.2%	14.1	7.0
28	Cc1ccc2c(c1)N(C(=O)CCC(=O)N1CCC3(CC1)OCCO3)CC(C)O2 (stereo not given)	-12.2	0.2	-2.6	1.6%	-9.7	5.3
29	CN1CCc2nc3sc(C#N)c(N)c3c(-c3cccs3)c2C1	3.8	2.1	/	10.2%[38.3 µM]	-2.3	-16.0
30	CN1C(=O)C(Cc2ccc(OCc3ccccc3)cc2)C(=O)N(C)C1=O	-0.8	0.0	-3.9	0.0%	39.0	-4.4
31	CCN(C(=O)CN1CC=C(c2ccccc2)CC1)c1c(N)n(Cc2ccccc2)c(=O)[nH]c1=O	-9.0	2.0	-2.3	-1.8%	-11.1	-0.8
32	COc1ccc(CCNCc2sccc2C)cc1OC	-11.6	-0.2	-5.3	-0.2%	-2.7	-0.8
33	CN1CCCC(C(=O)c2ccccc2)C1 (stereo not given)	-3.1	5.1	-0.4	-2.1%	35.9	0.6
34	Cc1ccc(/C=C2/C(=O)NC(=O)N(CC3CCCO3)C2=O)s1 (stereo not given)	4.0	0.0	-1.8	5.0%	5.6	2.2
35	COc1ccc(CC2C(=O)NC(=O)NC2=O)c(OC)c1	-1.2	-0.4	-2.1	-0.2%	1.8	0.5
36	CC(C)(C)OC(=O)c1c(N)n(Cc2ccco2)c2nc3ccccc3nc12	-9.8	0.7	-2.6	1.6%	1.4	-21.4
37	Cc1c(Cl)cccc1NC(=S)N1CC2CC(C1)c1cccc(=O)n1C2 (stereo not given)	0.2	-0.6	-2.1	2.5%	5.1	6.6
38	C=CCn1c(O)c(C(C)=NCCC2=CCCCC2)c(=O)[nH]c1=O	-5.1	1.5	-0.5	-2.7%	-4.3	-1.7
39	COc1ccccc1CNCCc1ccc(F)cc1	-21.4	/	-4.0	0.5%	/	0.0
40	COc1ccc(CN2CCN(Cc3ccccc3)CC2)c(OC)c1	-18.5	-0.7	-1.7	-0.1%[38.3 µM]	-2.1	-10.7
41	COc1ccc(CC(C)NCCc2ccc(OC)c(OC)c2)cc1 (stereo not given)	-16.1	0.5	14.3	0.1%	-7.8	10.3
42	Cc1cccc(Cn2cccc(C(=O)Nc3nc4ccccc4s3)c2=O)c1	/	0.4	/	1.1%	23.2	/
43	COc1ccc(C2=CC(c3ccc(OC)c(OC)c3)c3c(c4ccccc4oc3=O)O2)cc1OC (stereo not given)	-6.0	1.0	-1.4	16.6%	-11.8	-7.0
44	CCOC(=O)[C@]12Cc3cc(OC)ccc3[C@H]1N(C1CCCCC1)C(=O)c1ccccc12	/	-0.3	/	-0.6%	/	-1.8
45	COc1cc2c(ccc3c4cc(OC)c(OC)cc4c[n+](C)c23)cc1O	-21.4	0.0	-2.9	5.4%	19.2	?
46	C=CCn1c(O)c(C(CC)=Nc2cccc(C(=O)O)c2)c(=O)[nH]c1=O	-4.5	-0.2	2.8	-0.1%	3.5	1.6
47	O=c1[nH]c(=S)n(-c2ccccc2F)c(O)c1C=NCCN1CCNCC1	-3.7	-0.5	-2.0	0.4%	22.9	2.8
48	O=C(Nc1ccccc1C(F)(F)F)c1cccn(Cc2ccccc2)c1=O	/	0.0	/	7.1%	-1.2	/
49	Cc1ccc2[nH]c(C)c(CCNCc3ccco3)c2c1	-19.1	0.6	-15.6	0.7%	35.9	-14.9
50	Clc1ccc2c(c1)C(c1ccccc1Cl)=NCc1nnc(N3CCN(CCSc4ccccc4)CC3)n1-2	-3.7	-0.7	-5.2	-2.2%	45.7	-2.8
51	C[C@@H]1CC2(CCCC[N+]2(C)C)C[C@H]1C	-9.5	-0.6	2.4	-0.5%	3.7	-1.8
52	C[C@@H]([C@@H](O)c1ccccc1)N(C)C(=O)Cc1ccccc1	-2.1	-0.4	-3.5	0.3%	6.3	7.3
53	CC(C)NS(=O)(=O)c1ccc(OCC(=O)N2CCN(Cc3ccc4c(c3)OCO4)CC2)c(Cl)c1	3.7	-0.3	0.3	-0.6%[38.3 µM]	-10.0	0.1
54	CN(C)CCCN=Cc1c(O)n(CCc2ccccc2)c(=O)[nH]c1=O	-15.9	0.5	-0.6	-0.8%	-8.5	-0.3
55	CCCCCc1nc2c(c(=O)c3ccccc3n2C)c(=O)n1C1CCCCCC1	-5.6	?	-2.3	-2.4%	10.8	4.1
56	CCOC(=O)[C@]12Cc3cc(OC)ccc3[C@H]1N(CC(=O)OC)C(=O)c1ccccc12	/	-0.8	/	1.0%	/	-1.3
57	O=C1NC(=O)C(=Cc2ccc(OCC(=O)N3CCOCC3)cc2)C(=O)N1	-19.6	-0.3	-1.5	1.1%	-5.6	17.3
58	CCOc1cc2[nH]c(=S)n(CCCC(=O)N3CCC4(CC3)OCCO4)c(=O)c2cc1OCC	-8.9	1.0	-1.8	3.5%[38.3 µM]	-7.5	-1.1
59	COc1ccc(CN2CCNCC2)cc1	-17.5	/	-4.6	1.7%	/	10.1
60	CCC(=NCc1cc(OC)cc(OC)c1)c1c(O)n(C2CCCCC2)c(=O)[nH]c1=O	8.3	2.7	9.7	8.8%	26.9	-4.9
61	COC(=O)C1=C(c2ccccc2OCc2ccccc2)C[C@@H]2CC[C@H]1N2C(=O)NCCOc1ccc(OC)cc1	-18.8	0.6	-4.8	-0.7%	11.0	-16.4
62	CC(C)(C)NC(=S)/N=C(\N)N[N+](=O)[O-]	-12.2	-0.3	-6.2	0.6%	-0.9	3.6
63	CC(C)(C)c1o[nH]c(=O)c1CC(N)C(=O)O (stereo not given)	6.6	0.8	-1.6	1.0%	2.0	8.3
64	CCOC(=O)C1C2c3ccccc3O[C@@]1(C)N=C1SCC(=O)N12 (stereo not given in full)	-4.5	0.3	0.7	/	-4.5	1.2
65	COC(=O)C1=C(c2ccc(S(C)(=O)=O)cc2)C[C@@H]2CC[C@H]1N2C(=O)NCc1ccc(F)cc1	-3.2	-0.7	-1.3	-1.2%	2.6	-3.5
66	CN(C)c1ccc(C=C2C(=O)NC(=S)NC2=O)cc1[N+](=O)[O-]	-7.8	0.4	-0.7	-0.2%	13.8	-15.2
67	CCN(CC)CCN=Cc1c(O)n(CCc2ccccc2)c(=O)[nH]c1=O	-6.3	-0.3	-4.1	-2.0%	-4.5	-5.7
68	O=C1NC(=O)N(CCc2ccc(F)cc2)C(=O)/C1=C/C=C/c1ccccc1	10.3	1.6	-1.7	-1.3%	15.6	8.9
69	FC(F)(F)c1ccc(NC2=NCCCS2)cc1	-7.9	0.3	-6.6	5.6%	5.1	23.1
70	CCCc1[nH]nc2c1C1(C(=O)N(CC(N)=O)c3ccccc31)C(C(=O)OC)=C(N)O2 (stereo not given)	0.2	0.9	0.4	1.1%	9.5	-0.9
